High-throughput results as filed in PubChem BioAssay.
RGS16-Gao HTS: regulators of human RGS16-Galphao interaction; O15492+P09471; bead-based flow cytometry RGS16-Galphao binding, fluorescence; actives lie on both sides; binding response (% of control), % at 10 µM; hit rate 0.38% among 220,000;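 active = below 25% or above 175%, edge rows of some plates excepted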;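 also: Galphao activated by GDP with aluminum fluoride before binding; 100% = wells without compound and 0% = beads without RGS; some results beyond the cut were filed as inactive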
Target sequence (O15492 whole entry, looked up): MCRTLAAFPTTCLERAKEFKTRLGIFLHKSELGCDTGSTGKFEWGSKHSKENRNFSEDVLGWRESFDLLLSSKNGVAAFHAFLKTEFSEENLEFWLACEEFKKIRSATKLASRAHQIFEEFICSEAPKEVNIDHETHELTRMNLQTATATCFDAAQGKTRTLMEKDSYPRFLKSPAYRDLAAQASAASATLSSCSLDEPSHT
Target sequence (P09471 whole entry, looked up): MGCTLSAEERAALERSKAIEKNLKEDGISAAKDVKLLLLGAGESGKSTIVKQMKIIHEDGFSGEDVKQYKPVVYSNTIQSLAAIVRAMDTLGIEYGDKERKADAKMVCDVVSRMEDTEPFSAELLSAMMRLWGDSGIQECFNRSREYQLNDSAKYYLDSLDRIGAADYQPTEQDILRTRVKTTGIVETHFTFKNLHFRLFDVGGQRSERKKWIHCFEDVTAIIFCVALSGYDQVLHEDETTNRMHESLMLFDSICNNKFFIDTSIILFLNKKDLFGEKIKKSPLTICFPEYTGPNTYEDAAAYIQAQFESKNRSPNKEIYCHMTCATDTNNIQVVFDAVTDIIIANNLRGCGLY
HSV replic up: increases HSV replication in cells | AID 1956 | HSV replication augmentation in cells, fold increase | maximum fold increase | hit rate 0.005% among 220,000;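 active = peak rise of 1.5-fold or more in the series; tested in PC3 cells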;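 also: first round at 10 µM; read as green reporter fluorescence; hits show the peak of a series up to 25 µM; 1 = signal of infected wells without compound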
HSV replic up primary fold: second read-out of HSV replic up, no call of its own (marks repeat the call); fold increase; compound at 10 µM; measured here: primary screen fold increase 10 uM; tested in PC3 cells;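 GFP signal in the first replicate; 1 = infected wells without compound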
An asterisk follows results filed as active; & = joins results of further samples.

For O=c1ccc2[n+]([O-])c3ccc(O)cc3oc-2c1 the results were RGS16-Gao HTS 88.
`CC(C)NCC(O)COc1cccc2[nH]ccc12` (centres undefined) gave RGS16-Gao HTS 98.
Screening CC[C@H]1OC(=O)C[C@@H](O)[C@H](C)[C@@H](O[C@@H]2O[C@H](C)C[C@H](N(C)C)[C@H]2O)[C@@H](CC=O)C[C@@H](C)C(=O)C=C[C@]2(C)O[C@H]2[C@@H]1C returned RGS16-Gao HTS 90.
Screening CCN(CC)C(=O)CSc1nnc2nnc3cc(C)ccc3n12 returned RGS16-Gao HTS 106.
`CC(=O)Nc1ccc(S(=O)(=O)Nc2cc(-c3ccccc3)nn2C)cc1` gave RGS16-Gao HTS 99.
For CCOC(=O)C(=O)Cc1nc2ccccc2s1 the results were RGS16-Gao HTS 77.
Screening COc1cc(/C=C2/SC(=Nc3ccc(O)cc3)NC2=O)ccc1O returned RGS16-Gao HTS 95.
`OC(CNCc1ccccc1)c1ccccc1` (centres undefined) gave RGS16-Gao HTS 92.
O=C1C=C(O)c2c(O)cccc2C1=O was read as RGS16-Gao HTS 103.
`Cn1c(=O)c(N)c2c3c(c(Br)ccc31)C(=O)c1ccccc1-2` gave RGS16-Gao HTS 96.
For O=C(O)C[C@@H]1C(=O)O[C@@H]2C(COC(=O)c3cc(O)c(O)c(O)c3)O[C@@H](OC(=O)c3cc(O)c(O)c(O)c3)[C@@H](OC(=O)c3cc(O)c(O)c4c3[C@H]1[C@H](O)C(=O)O4)[C@H]2OC(=O)c1cc(O)c(O)c(O)c1 (some centres undefined) the results were RGS16-Gao HTS 43.
Cc1ccc(S(=O)(=O)N2CCCCC2)cc1C(=O)Nc1ncn[nH]1 was read as RGS16-Gao HTS 96.
CCCCc1nc2ccccc2c(=O)n1NC(=O)c1c(O)c2cccc3c2n(c1=O)CC3 was read as HSV replic up inactive and HSV replic up primary fold 0.9.
Screening Cc1ccc(Cn2c(C3CCCN3c3nc(-c4ccc(F)cc4)cs3)nc3cc(C(=O)NCCCO)ccc32)cc1 (centres undefined) returned HSV replic up inactive and HSV replic up primary fold 0.83.
Screening CCCCNC(=O)c1c(CSc2ccc(Cl)cc2)noc1C(=O)NCc1ccccc1 returned HSV replic up inactive and HSV replic up primary fold 1.1.
COCCNC(=O)c1onc(CSc2ccc(F)c(F)c2)c1C(=O)NCCOC was read as HSV replic up inactive and HSV replic up primary fold 0.98.
Screening O=C1c2ccccc2C(=O)N1Cc1nc(-c2ccccc2)no1 returned HSV replic up inactive and HSV replic up primary fold 0.97.
Screening CNC(C)C#Cc1ccc2oc3cc(C)c(C)cc3c(=O)c2c1 (centres undefined) returned HSV replic up inactive and HSV replic up primary fold 0.85.
`COc1ccc(CCNC(=O)CSc2nc(C)nc3c2c(=O)n(C)c(=O)n3C)cc1OC` gave HSV replic up inactive and HSV replic up primary fold 0.92.
COc1ccc([C@H]2/C=C\CN(C(=O)C3CCCC3)[C@@H](C)C(=O)N2Cc2ccc(F)cc2)cc1 was read as HSV replic up inactive and HSV replic up primary fold 0.99.
CCC/C=C(\CCC)C(NC(=O)c1ccc(C(F)(F)F)cc1)c1ccccc1 (centres undefined) was read as HSV replic up inactive and HSV replic up primary fold 0.89.
For O=C(NCC1CC1)C1(C(F)(F)F)CC(CCc2ccccc2)CCCO1 (centres undefined) the results were HSV replic up inactive and HSV replic up primary fold 0.98.
For CC(C)C(=O)NCCc1nc(-c2ccccc2Cl)no1 the results were HSV replic up inactive and HSV replic up primary fold 1.
`C=C1CCN([C@@H](CC(C)C)C(=O)O)S(=O)(=O)c2ccccc21` gave HSV replic up inactive and HSV replic up primary fold 1.
For O=c1c2ccccc2nnn1CSc1nc2ccccc2c(=O)n1Cc1ccco1 the results were HSV replic up inactive and HSV replic up primary fold 0.76.
Screening O=C(O)CCc1ccc(NCc2cccc(Oc3ccccc3)c2)cc1 returned HSV replic up inactive and HSV replic up primary fold 1.1.
Screening COC(=O)C1=C(C(=O)OC)[C@@H]2N(Cc3ccccc3)c3ccccc3[C@@]23C[C@@H](C(=O)OC)N(C(=O)c2cc(C)oc2C)C3=N1 returned HSV replic up inactive and HSV replic up primary fold 0.78.
`CCOC(=O)CCCCCNC(=O)c1ccc(F)cc1F` gave HSV replic up inactive and HSV replic up primary fold 0.8.
For O=C(/C=C/c1cccs1)N1CCC2(CC1)Oc1ccc(Cl)cc1C(=O)C21CC(c2ccc(Cl)cc2)=NO1 (centres undefined) the results were HSV replic up inactive and HSV replic up primary fold 0.77.
`CN(CCOc1ccc(CC2SC(=O)NC2=O)cc1)c1ccccn1` (centres undefined) gave HSV replic up inactive and HSV replic up primary fold 0.79&0.91.

Gathered by group, the compounds so far containing a furan ring, fused or not
For O=c1c2ccccc2nnn1CSc1nc2ccccc2c(=O)n1Cc1ccco1 the results were HSV replic up inactive and HSV replic up primary fold 0.76.
Screening COC(=O)C1=C(C(=O)OC)[C@@H]2N(Cc3ccccc3)c3ccccc3[C@@]23C[C@@H](C(=O)OC)N(C(=O)c2cc(C)oc2C)C3=N1 returned HSV replic up inactive and HSV replic up primary fold 0.78.

Other results:
For OCCOCCn1c(C(CO)Nc2nc(-c3ccc(Cl)cc3)cs2)nc2ccccc21 (centres undefined) the results were HSV replic up inactive and HSV replic up primary fold 0.94.
`CN(C(=O)OC(C)(C)C)c1ccc(-c2nc3ccccc3s2)cc1` gave HSV replic up inactive and HSV replic up primary fold 0.92.
`COC(=O)CCCC1=CC2=CC(=O)C(C)(OC(=O)c3ccc(Cl)nc3)C(=O)C2=CO1` (centres undefined) gave HSV replic up inactive and HSV replic up primary fold 1.
Screening CCOC(=O)C1Nc2ccc(C(F)(F)F)cc2C2c3ccccc3CC12 (centres undefined) returned HSV replic up inactive and HSV replic up primary fold 1.
Screening CCCCC1=CC2=CC(=O)C(C)(OC(=O)c3ccc(Cl)nc3)C(=O)C2=CO1 (centres undefined) returned HSV replic up inactive and HSV replic up primary fold 1.
Screening CCOC(=O)C1=C(C)NC(=O)NC1C(C)C (centres undefined) returned HSV replic up inactive and HSV replic up primary fold 1.1.
`Cc1csc2ncc(C(=O)NCc3ccc4c(c3)OCO4)c(=O)n12` gave HSV replic up inactive and HSV replic up primary fold 0.83.
Oc1cc(O)cc(-c2cc3ccc(O)cc3o2)c1 was read as HSV replic up inactive and HSV replic up primary fold 0.83.
For O=C1N[C@@H](Cc2ccccc2)C(=O)N2[C@@H]3N(S(=O)(=O)c4ccc(F)cc4)c4ccccc4[C@]3(Br)C[C@@H]12 the results were HSV replic up inactive and HSV replic up primary fold 0.86.
`c1ccc(-c2cnc(-c3ccccn3)nn2)cc1` gave HSV replic up inactive and HSV replic up primary fold 0.87.
For COc1ccc(NC(=O)[C@@H]2CC=C[C@@H]3CCN(Cc4ccccc4)C(=O)[C@@H]32)cc1 the results were HSV replic up inactive and HSV replic up primary fold 1.
`COc1ccc(CNC(=O)Nc2ccc([N+](=O)[O-])cc2)cc1` gave HSV replic up inactive and HSV replic up primary fold 0.87.
COC/C=C/C1=CC2=CC(=O)C(C)(O)C(=O)C2=CO1 (centres undefined) was read as HSV replic up inactive and HSV replic up primary fold 0.9.
Screening O=C1N[C@@H](Cc2cn(S(=O)(=O)c3c(F)c(F)c(F)c(F)c3F)c3ccccc23)C(=O)N[C@H]1Cc1ccccc1 returned HSV replic up inactive and HSV replic up primary fold 1.
For O=C1c2ccccc2S(=O)(=O)c2cc(N3CCN(c4ccccn4)CC3)ccc21 the results were HSV replic up inactive and HSV replic up primary fold 0.92.
Screening Cc1ccccc1COc1ccc(/C(O)=C2/C(=O)C(=O)N(CCCn3ccnc3)C2c2ccco2)cc1 (centres undefined) returned HSV replic up inactive and HSV replic up primary fold 1.
COc1ccc(CN2[C@@H](CC(=O)O)c3ccccc3S2(=O)=O)cc1 was read as HSV replic up inactive and HSV replic up primary fold 0.98.
Screening Nc1ncnc2c1ncn2[C@@H]1O[C@H](CO)[C@@H](O)[C@@H]1O returned HSV replic up inactive and HSV replic up primary fold 0.55.
Screening O=C(c1cnc2sccn2c1=O)N1CCCc2ccccc21 returned HSV replic up inactive and HSV replic up primary fold 0.86.
Screening COc1ccc(CNC(=O)C2(CC3CC(c4ccccc4)=NO3)CCN(C(=O)OC(C)(C)C)CC2)cc1 (centres undefined) returned HSV replic up inactive and HSV replic up primary fold 0.86.
For COC(C/C=C/C(=O)[C@@H](C)OCc1ccccc1)OC the results were HSV replic up inactive and HSV replic up primary fold 0.77.
CC1(c2nnc(-c3cccc(Cl)c3)o2)CC(c2ccccc2F)=NO1 (centres undefined) was read as HSV replic up inactive and HSV replic up primary fold 0.71.
For CCOc1ccccc1Nc1ncnc2c1cnn2-c1ccccc1 the results were HSV replic up inactive and HSV replic up primary fold 0.9.
`COC(=O)CCC(=O)OC1(C)C(=O)C2=CN(C3CC3)C(c3ccc(OC)cc3)=CC2=C(Br)C1=O` (centres undefined) gave HSV replic up inactive and HSV replic up primary fold 0.81.
Cc1nc(-c2ccc(Cl)cc2)sc1C1(C)CC(c2ccc(Br)cc2)=NO1 (centres undefined) was read as HSV replic up inactive and HSV replic up primary fold 0.87.
Screening CCCCOC(=O)c1ccc(NC(=O)c2c(N)n(C)c(=O)[nH]c2=O)cc1 returned HSV replic up inactive and HSV replic up primary fold 0.89.
`COc1ccc(-n2nnc3c(=O)n(CC(=O)N4CCC(Cc5ccccc5)CC4)cnc32)cc1` gave HSV replic up inactive and HSV replic up primary fold 0.93.
For CCCNc1nc(C)cc(-c2cc(C(=O)Nc3ccccc3)on2)n1 the results were HSV replic up inactive and HSV replic up primary fold 0.7.
Cc1ccc(-c2csc(NCCc3nc4cc(Cl)c(Cl)cc4n3CCCO)n2)cc1 was read as HSV replic up inactive and HSV replic up primary fold 0.85.
`CC1(c2nnc(-c3cccc(Cl)c3)o2)CC(c2ccc(Cl)cc2)=NO1` (centres undefined) gave HSV replic up inactive and HSV replic up primary fold 1.1.
For O=C(O)C[C@H]1c2ccccc2S(=O)(=O)N1C1CCCCC1 the results were HSV replic up inactive and HSV replic up primary fold 0.96.
Nc1cc(N)cc(-c2nc3ccccc3o2)c1 was read as HSV replic up inactive and HSV replic up primary fold 0.95.
CCO[C@@H]1OC(C(=O)NCc2nc3ccccc3[nH]2)=C[C@H](c2coc3ccccc3c2=O)[C@H]1CCCO was read as HSV replic up inactive and HSV replic up primary fold 0.9.
Screening O=C(Nc1cccc(-c2nnc(-c3ccccc3)o2)c1)c1ccco1 returned HSV replic up inactive and HSV replic up primary fold 0.9.
C#CCCOC(=O)N1C2=NC(C(=O)OC)=C(C(=O)OC)[C@@H]3N(C)c4ccccc4[C@]23C[C@H]1CO was read as HSV replic up inactive and HSV replic up primary fold 0.94.
Screening CCOc1ccc(Cl)cc1Nc1nc(NCCO)nc(N2CCCC2)n1 returned HSV replic up inactive and HSV replic up primary fold 0.62.
NCCCC[C@H]1CN=C(N)N1CC1CCCCC1 was read as HSV replic up inactive and HSV replic up primary fold 0.83.
Screening Cc1cccc(CN2C(=O)[C@H]3Cc4c([nH]c5ccccc45)C(C)(C)N3C2=O)c1 returned HSV replic up inactive and HSV replic up primary fold 0.76.
Screening OCCOCCn1c(C(CO)Nc2nc(-c3ccc(F)cc3)cs2)nc2ccccc21 (centres undefined) returned HSV replic up inactive and HSV replic up primary fold 0.88.
Screening C[C@H]1[C@@H](OC(=O)CCC(=O)O)O[C@@H]2OC3(C)CC[C@H]4[C@H](C)CC[C@@H]1[C@@]24OO3 returned HSV replic up inactive and HSV replic up primary fold 0.95.

In the list so far, these have bromine:
`Cn1c(=O)c(N)c2c3c(c(Br)ccc31)C(=O)c1ccccc1-2` gave RGS16-Gao HTS 96.
For O=C1N[C@@H](Cc2ccccc2)C(=O)N2[C@@H]3N(S(=O)(=O)c4ccc(F)cc4)c4ccccc4[C@]3(Br)C[C@@H]12 the results were HSV replic up inactive and HSV replic up primary fold 0.86.
`COC(=O)CCC(=O)OC1(C)C(=O)C2=CN(C3CC3)C(c3ccc(OC)cc3)=CC2=C(Br)C1=O` (centres undefined) gave HSV replic up inactive and HSV replic up primary fold 0.81.
Cc1nc(-c2ccc(Cl)cc2)sc1C1(C)CC(c2ccc(Br)cc2)=NO1 (centres undefined) was read as HSV replic up inactive and HSV replic up primary fold 0.87.

Continuation.
For C/C(Cl)=C/Cn1c(SCC(C)C)nc2c1c(=O)[nH]c(=O)n2C the results were HSV replic up inactive and HSV replic up primary fold 0.97.
Screening CC(=O)c1ccc(O)c(CC=C(C)C)c1O returned HSV replic up inactive and HSV replic up primary fold 1.1.
COC(=O)C1=C(C)N(CCCC(=O)O)C(=O)NC1c1cccc(Cl)c1Cl (centres undefined) was read as HSV replic up inactive and HSV replic up primary fold 0.91.
`C=C1CCN([C@@H](CC(C)C)C(=O)Nc2nc3ccc(Cl)cc3s2)S(=O)(=O)c2ccccc21` gave HSV replic up inactive and HSV replic up primary fold 0.93.
`Cc1[nH]cnc1CN1CCc2c(c3ccccc3n2C)C1=O` gave HSV replic up inactive and HSV replic up primary fold 1.
`CCCCN1C(N)=NC[C@@H]1CC1CCCCC1` gave HSV replic up inactive and HSV replic up primary fold 0.8.
O=C(NCCc1nc(-c2ccccc2Cl)no1)C1CCCCC1 was read as HSV replic up inactive and HSV replic up primary fold 0.56.
Screening CC(C)c1ccc(NC(=O)C(c2ccccc2)N(C)C(=O)CCc2c[nH]c3ccccc23)cc1 (centres undefined) returned HSV replic up inactive and HSV replic up primary fold 0.83.

This is a subset. The share of hits here may be higher or lower than overall.
